High-throughput results from PubChem.
A647 fluor – compound fluoresces in the A647 spectral region; Compound fluorescence, A647 channel (570/671 nm), Tris buffer; max dye-equivalent concentration, M; 59,000 tested, under 10 active; AID 592; active means above 1 µM dye equivalent; inconclusive means 0.1 to 1 µM; inactive means 0.1 µM or less;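 note: values scaled relative to a standard on each plate; highest value over a series up to 38 µM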
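Compound fluorescence was measured in 100 mM Tris buffer, pH 8.0, after 15 min at room temperature, using 570 nm excitation and 671 nm emission filters. Signal was normalized to a per-plate Alexa 647 standard curve and expressed as dye-equivalent concentration at each compound concentration.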
Resorufin fluor – resorufin region autofluorescence | max dye-equivalent concentration, M | Compound fluorescence, resorufin region 547/598 nm, buffer; active compounds read high | actives 0.04% (n = 59,000) | AID 588; active = above 10 nM dye equivalent; inconclusive = 1 to 10 nM; inactive = 1 nM or less; a few of its hits are not listed in these tables; note: highest value over a series up to 38 µM
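Tris 100 mM pH 8.0; compound added, 15 min RT; CCD imager read, ex 547 nm/em 598 nm; signal normalized to resorufin standard curve (six concentrations per plate) as dye-equivalent concentration.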
TSHR ag – activates the human thyroid stimulating hormone receptor | P16473 | HEK293-CNG-TSHR cells (CNG channel as cAMP sensor), membrane potential dye, cAMP | Potency, µM (titrated, usually from 57.1 µM), inactives show at the top dose activation, actives largely listed as activators | actives 0.48% (n = 73,000); active = well fitted activation curve of enough size with the parental cells flat; inconclusive = any curve in the parental cells; inactive = parental cells flat and receptor cells flat or falling; note: potency is the fitted concentration of half-maximal effect; % of control where 0% means no effect; weak receptor curves with flat parental cells got no call and are not listed
Target sequence (P16473 whole entry, looked up): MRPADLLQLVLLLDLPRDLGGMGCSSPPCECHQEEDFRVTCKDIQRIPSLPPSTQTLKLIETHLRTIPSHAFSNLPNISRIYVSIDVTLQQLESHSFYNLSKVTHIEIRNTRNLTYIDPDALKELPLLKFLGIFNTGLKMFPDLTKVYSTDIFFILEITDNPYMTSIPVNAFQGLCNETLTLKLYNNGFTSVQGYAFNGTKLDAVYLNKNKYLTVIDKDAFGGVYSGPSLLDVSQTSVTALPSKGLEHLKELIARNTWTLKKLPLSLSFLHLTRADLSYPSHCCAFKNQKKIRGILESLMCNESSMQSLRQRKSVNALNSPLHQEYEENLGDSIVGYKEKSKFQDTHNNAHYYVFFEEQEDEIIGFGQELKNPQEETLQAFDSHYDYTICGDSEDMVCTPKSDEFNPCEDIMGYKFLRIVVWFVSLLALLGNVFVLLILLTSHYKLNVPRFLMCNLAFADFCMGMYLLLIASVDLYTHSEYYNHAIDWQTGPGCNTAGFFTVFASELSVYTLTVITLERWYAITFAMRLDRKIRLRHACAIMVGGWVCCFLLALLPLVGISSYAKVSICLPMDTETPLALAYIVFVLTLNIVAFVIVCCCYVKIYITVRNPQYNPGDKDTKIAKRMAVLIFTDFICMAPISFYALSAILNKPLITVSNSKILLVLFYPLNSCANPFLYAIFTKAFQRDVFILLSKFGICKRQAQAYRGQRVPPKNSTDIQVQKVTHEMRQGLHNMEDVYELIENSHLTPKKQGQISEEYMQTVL
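HEK 293 cells stably expressing TSHR and a cAMP-gated CNG channel; parental CNG-only cells as counterscreen. Cells preloaded 60 min with membrane potential dye plus 100 uM RO 20-1724, then compound 30 min; fluorescence read at 590 nm.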
A488 autofl – compound autofluorescence in A488 spectral region. compound autofluorescence, A488 spectral region, dye equivalency; active compounds read high. max dye equivalency, M. actives 0.1% (n = 59,000). AID 591; active = above 10 nM dye equivalent; inconclusive = 1 to 10 nM; inactive = 1 nM or less; about half of its hits are not listed in these tables;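 note: highest value over a series up to 38 µM; compound alone in buffer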
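Compound autofluorescence was read in 100 mM Tris pH 8.0 after 15 min at room temperature, ex 480 nm/em 540 nm. Intensities were converted to A488 dye-equivalent concentration using an on-plate six-point A488 standard curve.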
AID923 – qHTS Assay for Allosteric/Competitive Inhibitors of Caspase-1: Spectroscopic Profiling in AFC Spectral Region. AID 923, 2007. compound fluorescence, AFC spectral region (405/520 nm); almost no hit is shown here. Potency, µM (top dose mostly 57.5 µM), for the others: at the highest dose fluorescence increase, most hits filed as activators. actives 1.1% (n = 75,000); active = well fitted activation curve with a large enough effect; inconclusive = small, poorly fitted or top-dose-only effect;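 note: potency is the fitted concentration of half-maximal effect; 0% is about no effect; scaled to a free AFC standard on each plate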
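Baseline compound fluorescence (AFC region, 405 nm ex/520 nm em) taken from the intercept of kinetic reads with 50 nM caspase-1 and 5 uM Ac-WEHD-AFC; normalized to an on-plate AFC standard curve; compounds titrated up to 57 uM.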
* marks the source's active call; other numbers are inactive results; i = inactive; ? = inconclusive; · = not tested or not shown; & = joins results of further samples; [ ] = another dose, or the depositor's remark. An excerpt; the hit share may differ from the screen's.

SMILES	A647 fluor	Resorufin fluor	TSHR ag	A488 autofl	AID923
O=C(C1CCCN(S(=O)(=O)c2cccc3nonc23)C1)N1CCC(Cc2ccccc2)CC1 (configuration not stated)	3.6e-08	i	1%[11.4 µM]	i	-0.2%
COc1ccccc1NC(=O)c1ccccc1NS(=O)(=O)N1CCCC1	4.2e-09	i	?	i	-0.6%
CCCCn1c(SCc2cc(=O)[nH]c3ccccc23)nc2c1c(=O)n(C)c(=O)n2C	1.3e-08	i	6%	i	-1.4%
CC12CN(C(=O)c3ccccc3)C3(C#N)CC1CCC23C (configuration not stated)	6.2e-09	i	26%	i	-0.5%
CCOC(=O)C1CCN(Cc2nc3ccccc3c(=O)n2-c2ccc(OCC)cc2)CC1	7e-09	i	5%	i	0.1%
Cn1nc(-c2ccc(OCC(=O)Nc3cccnc3)cc2)c2ccccc2c1=O	4.4e-09	i	2%	i	0.8%
Cc1ccc(C(=O)CSc2nnc(-c3ccco3)n2CC2CCCO2)cc1 (configuration not stated)	5.5e-08	i	5%	i	0.1%
Cc1ccc2[nH]c3c(NCCN4CCOCC4)ncnc3c2c1	2.9e-08	i	·	i	·
Cc1c(N(C)C)nc2ccccc2c1N	6.3e-09	i	?	i	4.7%
COc1ccc(O[C@H]2C=C[C@@H](c3ccccc3)O[C@H]2CO/N=C2/c3cc(OC)ccc3O[C@@H](c3cccc(OC)c3)[C@H]2O)cc1	·	·	27%[11.4 µM]	·	-5.8%[11.5 µM]
Cc1nc2ccc(S(=O)(=O)NCC(=O)N3CCN(c4ccccn4)CC3)cc2s1	4.7e-09	i	0%[11.4 µM]	i	0.1%
Cc1oc(-c2cccc(Cl)c2)nc1CN1CCCC(C(=O)NCc2ccco2)C1 (configuration not stated)	1.5e-09	i	6%[11.4 µM]	i	0.8%
Cc1cccc(C2CC(c3ccccc3)Nc3nc(N)nn32)c1 (configuration not stated)	·	·	0%	·	-3.0%
CCCCC[C@H](O)/C=C\[C@H]1[C@H](C/C=C\CCCC(=O)O)[C@@H](O)C[C@H]1O (tested in a mixture with another compound)	4.9e-08	i	?	i	-3.5%[25.7 µM]
O=C(COc1ccccc1Cl)Nc1ccc2c(c1)OCCO2	·	·	?	·	3.0%
C=CCN(C(=O)CNS(=O)(=O)c1ccccc1)C(C(=O)NCCOC)c1ccncc1 (configuration not stated)	4.3e-08	i	2%	i	0.1%
COc1ccc(-c2nc(C#N)c(NCCc3ccccc3)o2)cc1OC	2.2e-08	i	-19%	i	2.5%
COc1cc(S(=O)(=O)N(Cc2ccco2)C2CCCC2)ccc1-n1cnnn1	1e-09	i	?	i	1.1%
O=C(Nc1ccccc1)Nc1ccccc1C(=O)NCc1ccco1	6.5e-09	i	-6%	i	-0.3%
CC(C)=CC(=O)Nc1ccc(Br)cc1	7.8e-09	i	?	i	-1.1%
COC(=O)c1cn(-c2ccccc2)nc1-c1cccnc1	·	·	6%	·	1.6%
CSc1nc(=NC(C)=O)ss1	1e-09	i	18%	i	-0.7%
COc1cccc(-c2nnc(SCc3nc4ccccc4[nH]3)n2N)c1	1e-09	i	-4%	i	-0.2%
O=[n+]1c2c(n([O-])c3cc(Br)ccc31)CCC2	1e-09	i	2%	i	1.5%
COc1ccc(CN2C(=O)NC3(CCCCCC3)C2=O)cc1F	2.2e-08	i	12%	i	-0.2%

(more compounds)
SMILES	A647 fluor	Resorufin fluor	TSHR ag	A488 autofl	AID923
Cc1nnc(NCc2ccco2)c2ccccc12	3.1e-09	i	4%	i	-0.9%
CCCOc1ccc(/C(O)=C2/C(=O)C(=O)N(CCN(C)C)C2c2ccc(O)c(OC)c2)cc1 (configuration not stated)	2.4e-09	i	-8%	i	-0.3%
C=CCOC(=O)C1=C(C)NC(SCC(=O)NC(=O)OCC)=C(C#N)C1c1cccnc1 (configuration not stated)	1e-09	i	?	i	17%
O=C(CCS(=O)(=O)Cc1ccccc1)NCc1ccco1	2.9e-08	i	-9%	i	0.1%
COc1cccc(NC(=O)C2CC(=O)N=C(N)S2)c1 (configuration not stated)	2.5e-09	i	-1%	i	-1.1%
COCCNc1nc(-c2ccccc2C(F)(F)F)nc2ccccc12	1e-09	i	13%	i	1.3%
Cn1c(=O)oc2cc(S(=O)(=O)N3CCN(c4cccc(Cl)c4)CC3)ccc21	3.3e-09	i	14%	i	1.4%
O=C(CNC(=O)c1ccco1)OC(C(=O)c1ccccc1)c1ccccc1 (configuration not stated)	1e-09	i	4%	i	1.3%
O=S1(=O)N=C(N2CCc3ccccc3C2)c2ccccc21	1e-09	i	2%	i	-0.6%
CCCOc1ccc(Cn2c(O)cc(=O)[nH]c2=O)cc1	6.9e-08	i	·	i	·
CCc1ccc(Nc2cc(C)nc3nc(C)nn23)cc1	·	·	27%	·	-1.2%
O=C(Oc1cccc(N2C(=O)CCC2=O)c1)C1CC(=O)N(c2ccc(Br)cc2)C1 (configuration not stated)	8.9e-09	i	-7%	i	-0.1%
COCCCNC(=O)C1CC(=O)N(C2CCCC2)C1 (configuration not stated)	1e-09	i	3%	i	1.9%
O=C(COc1ccc(-n2cnnn2)cc1)N1CCN(c2ccc(F)cc2)CC1	5.4e-08	i	-3%	i	-2.0%
CCCC(=O)Nc1nc(C(=O)OCC)cs1	2e-08	i	-1%	i	1.1%
O=c1c2c3c(sc2nc2sc(C4CC4)nn12)CCCC3	1e-09	i	0%	i	-0.9%
COC(=O)c1cc(NC(=O)CC2SCCNC2=O)cc(C(=O)OC)c1 (configuration not stated)	2.9e-08	i	-8%	i	-1.7%
Cc1cc(C(=O)COC(=O)c2n[nH]c3ccccc23)c(C)n1C	2.9e-08	i	4%	i	-2.4%
COc1cccc(-c2nnc(SCC(=O)N(C(C)C)C(C)C)o2)c1	1.4e-08	i	?	i	-2.9%
CC(C)CCOCC(=O)Nc1cccc(C(=O)O)c1	4.5e-08	i	10%	i	-0.8%
COc1cccc(NC(=O)C2C3CC4OC(=O)C2C4C3)c1 (configuration not stated)	1e-09	i	-1%	i	1.6%
CC(C)(C)NCCCCOc1ccccc1F	·	·	7%	·	2.2%
COc1cc(C(=O)Nc2ccc(NC(=O)C(C)C)nc2)cc(OC)c1OC	1.6e-08	i	-11%	i	-1.2%
CSc1ccc(CN2CCC(O)CC2)cc1	·	·	8%[11.4 µM]	·	-1.1%
COCCNC(=O)C1CC(=O)N(CCc2ccccc2)C1 (configuration not stated)	2.7e-09	i	2%	i	0.5%

Some of the entries above, set out differently:
molecule | A647 fluor | Resorufin fluor | TSHR ag | A488 autofl | AID923
COCCCNC(=O)C1CC(=O)N(C2CCCC2)C1 (configuration not stated) | 1e-09 | i | 3% | i | 1.9%
O=C(COc1ccc(-n2cnnn2)cc1)N1CCN(c2ccc(F)cc2)CC1 | 5.4e-08 | i | -3% | i | -2.0%
CCCC(=O)Nc1nc(C(=O)OCC)cs1 | 2e-08 | i | -1% | i | 1.1%
O=c1c2c3c(sc2nc2sc(C4CC4)nn12)CCCC3 | 1e-09 | i | 0% | i | -0.9%
COC(=O)c1cc(NC(=O)CC2SCCNC2=O)cc(C(=O)OC)c1 (configuration not stated) | 2.9e-08 | i | -8% | i | -1.7%
Cc1cc(C(=O)COC(=O)c2n[nH]c3ccccc23)c(C)n1C | 2.9e-08 | i | 4% | i | -2.4%
COc1cccc(-c2nnc(SCC(=O)N(C(C)C)C(C)C)o2)c1 | 1.4e-08 | i | ? | i | -2.9%
CC(C)CCOCC(=O)Nc1cccc(C(=O)O)c1 | 4.5e-08 | i | 10% | i | -0.8%
COc1cccc(NC(=O)C2C3CC4OC(=O)C2C4C3)c1 (configuration not stated) | 1e-09 | i | -1% | i | 1.6%
CC(C)(C)NCCCCOc1ccccc1F | · | · | 7% | · | 2.2%
COc1cc(C(=O)Nc2ccc(NC(=O)C(C)C)nc2)cc(OC)c1OC | 1.6e-08 | i | -11% | i | -1.2%
CSc1ccc(CN2CCC(O)CC2)cc1 | · | · | 8%[11.4 µM] | · | -1.1%
COCCNC(=O)C1CC(=O)N(CCc2ccccc2)C1 (configuration not stated) | 2.7e-09 | i | 2% | i | 0.5%

Copied from the list:
TSHR ag with O=S1(=O)N=C(N2CCc3ccccc3C2)c2ccccc21 → 2%
A647 fluor with O=C(Oc1cccc(N2C(=O)CCC2=O)c1)C1CC(=O)N(c2ccc(Br)cc2)C1 (configuration not stated) → 8.9e-09

Continuation.
SMILES	A647 fluor	Resorufin fluor	TSHR ag	A488 autofl	AID923
C(=N\n1cnnc1)/c1cccc(Oc2ccccc2)c1	1e-09	i	·	i	·
FC(F)(F)c1cnc2c(c1)Nc1ccccc1S2	1.9e-08	i	-7%	i	3.8%
CCOC(=O)Cn1c(SC)nc2sc3c(c2c1=O)CC(C)(C)OC3	7.5e-08	i	·	i	·
O=C(CCN1CCc2ccccc2C1)Nc1cccc(F)c1	1e-09	i	-5%	i	-0.2%
CCc1cc2cc(C)cc(C)c2nc1SCC(=O)N1CCN(C(=O)c2ccco2)CC1	6.4e-08	i	·	i	-0.9%
c1cc2[nH]snc2c2nc(C3CC3)nc12	2.3e-08	i	?	i	-1.6%
Cc1ccc2c(c1)N(CC(=O)NC1CCCCC1C)C(=O)CO2 (configuration not stated)	1e-09	i	?	i	0.9%
COc1ccc(OC)c(S(=O)(=O)NCCc2cn3ccsc3n2)c1	·	·	1%	·	3.6%
O=C(COC(=O)C1=COCCO1)Nc1ncc(C(F)(F)F)cc1Cl	1e-09	i	-2%	i	0.7%
CCCOC(=O)Nc1cc(OC)c(Cl)cc1OC	1.9e-08	i	5%	i	1.8%
CCC(CO)NCCNC(CC)CO (configuration not stated)	6.2e-09	i	0%[11.4 µM]	i	-0.6%&1.7%
Cc1nnc(NC(=O)C2(c3ccccc3)CCOCC2)s1	1e-09	i	?	i	0.0%
COC(=O)NC1(C(F)(F)F)NC(=O)N(C2CCCCC2)C1=O (configuration not stated)	4.7e-09	i	-12%	i	1.2%
Oc1c(C(c2ccccc2)N2CCc3ccccc3C2)sc2ncnn12 (configuration not stated)	·	·	7%	·	2.5%
O=c1[nH]cnc2c1cnn2Cc1ccccc1	1.7e-09	i	·	i	·
O=C(CCn1nnc(-c2cccs2)n1)NC1CCCCC1	5.9e-08	i	1%	i	-1.8%
CCOC(=O)c1ccc(NS(=O)(=O)CC)cc1	4.6e-09	i	-6%	i	-1.0%
Cc1cc(C(=O)CN2C(=O)c3ccccc3S2(=O)=O)c(C)n1-c1ccccc1	3.7e-09	i	4%	i	0.2%
CCCCOc1ccc(C(O)(CCC)CCN2CCOCC2)cc1 (configuration not stated)	7.5e-09	i	?	i	-1.0%
Cc1ccc2[nH]c3c(N4CCOCC4)ncnc3c2c1	4e-08	i	·	i	·
C=C(C)Cn1c(SCCCO)nc2c1c(=O)[nH]c(=O)n2C	2.4e-09	i	0%	i	1.6%
CCCCNc1nc(C)nc2c1nc(-c1ccccc1)n2CCCN1CCCCC1C (configuration not stated)	·	·	?	·	1.5%
CCc1ccc(NC(=O)N(CCCOC(C)C)C2CCN(C(C)=O)CC2)cc1	4.2e-08	i	6%	i	-1.0%
Cc1cccc2cc(CN(Cc3ccc4c(c3)OCO4)Cc3nnnn3C3CCCC3)c(=O)[nH]c12	1e-09	i	?	i	1.0%
CCC(Sc1ncccc1C(=O)O)C(=O)N1CCCC1 (configuration not stated)	1e-09	i	-7%	i	0.3%
CN(C)Cc1ccccc1-c1cncnc1Nc1ccccc1	4.7e-08	i	13%	i	-0.4%
NC(N)=NCCN1CCCCCCC1	3.2e-08	i	i	i	-0.7%
Cc1cc2c(c(=O)n1Cc1cccnc1)C(c1ccccc1)C(C#N)=C(N)O2 (configuration not stated)	1e-09	i	·	i	·
CC(=O)c1ccc(OC(=O)C2CC(=O)N(c3cccc(C)c3)C2)cc1 (configuration not stated)	1e-09	i	-15%	i	2.3%
Fc1ccc(C(OCCCc2cnc[nH]2)c2ccc(F)cc2)cc1	1.3e-09	i	12%	i	0.7%
